# Bioassay records deposited in PubChem BioAssay by several laboratories.
# ALR H2O2 inh: blocks human ALR sulfhydryl oxidase activity; 3.8% of 290,000 active; inhibition, % (no concentration beside the values); purified ALR, DTT oxidation, H2O2 HRP-luminol luminescence;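 active = mean and each replicate at 75% or more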;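 also: stock transfer was 7.5 nL into about 7.5 µL; 0% = neutral wells and 100% = wells with inactivated enzyme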
# Target sequence (P55789 whole entry, looked up): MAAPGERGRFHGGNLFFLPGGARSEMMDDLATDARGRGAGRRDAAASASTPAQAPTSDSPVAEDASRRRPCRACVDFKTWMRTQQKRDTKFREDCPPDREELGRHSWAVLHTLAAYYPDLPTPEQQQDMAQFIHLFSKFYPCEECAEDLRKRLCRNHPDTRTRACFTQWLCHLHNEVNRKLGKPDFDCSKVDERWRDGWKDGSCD
# Bfl-1 A1 inh: inhibitors of the anti-apoptotic protein A1, read as caspase activation | MEF A1-2A-BIM cells, Caspase-Glo 3/7 luminescence, 3 h; percent of clofoctol response, vehicle zero | caspase activation, % (test concentration not listed) | 0.066% of 330,000 active;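 active = over half of replicate activation scores above 10%, or exactly half above 10 with the replicate mean above 10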;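 also: wells of about 30 µL received 50 nL stock; many hits fall short of the cut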
# Ecoli rRNA inh: inhibitors of bacterial rRNA selective over humanized ribosomes; E. coli WT GFP vs humanized-ribosome RFP mutants, fluorescence, 24 h; active compounds read low; DMSO median 0, no signal -100; GFP signal change (wild-type ribosome), % (test concentration not listed); 1.6% of 350,000 active;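 active = significant combined selectivity score with lowered wild-type GFP, culture density cut under 30%, mutant RFP and density less affected; inactive = any of these conditions unmet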; also: one replicate is shown; some compounds called inactive have numbers as strong as hits
# T cruzi inh: T. cruzi replication inhibition | T. cruzi beta-gal in NIH3T3, luminescence, 90 h | inhibition, % (test concentration not listed) | 1.4% of 300,000 active | AID 1885;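 active = mean inhibition across valid replicates above about 55%, limit read from the data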;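 also: signal also drops with host cell toxicity which is not excluded here; 0% = plate median of DMSO wells and 100% = zero luminescence signal; higher percent means less beta-gal luminescence so fewer parasites; stock transfer was 50 nL into about 50 µL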
# Beta2AR agonist: human beta-2 adrenergic receptor agonism by FAP. P07550. Am2.2-beta2AR cells, FAP receptor internalization, flow cytometry; reference of the scale not given here. response, % (test concentration not listed). 0.43% of 340,000 active. AID 504454;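 active = response above a set limit, near 3 SD of response in nonfluorescent compounds, cut at about 42% in these data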;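 also: stock transfer was 100 nL into about 11 µL; a reference agonist was the positive control; negative values mostly stem from fluorescent compounds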
# Target sequence (P07550 whole entry, looked up): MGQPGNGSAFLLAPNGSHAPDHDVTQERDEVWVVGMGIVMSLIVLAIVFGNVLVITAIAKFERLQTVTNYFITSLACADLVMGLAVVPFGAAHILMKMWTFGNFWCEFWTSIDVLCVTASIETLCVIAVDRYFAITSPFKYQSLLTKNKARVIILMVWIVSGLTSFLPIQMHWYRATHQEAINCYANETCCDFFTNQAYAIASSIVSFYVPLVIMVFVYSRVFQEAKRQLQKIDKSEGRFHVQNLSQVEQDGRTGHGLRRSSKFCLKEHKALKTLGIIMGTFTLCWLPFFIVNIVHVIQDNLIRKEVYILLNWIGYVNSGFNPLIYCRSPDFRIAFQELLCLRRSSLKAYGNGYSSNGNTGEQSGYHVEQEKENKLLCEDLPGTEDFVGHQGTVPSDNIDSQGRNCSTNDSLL
# Calb FLC: C. albicans growth modulation with fluconazole; C. albicans CaCi-2 (fluconazole-resistant clinical isolate) + fluconazole, Alamar Blue growth, 48 h; growth inhibition, % (no concentration beside the values); 0.57% of 300,000 active; AID 1979;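 active = most replicates above 75%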;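 also: all wells also contain fluconazole at 8 µg/ml as a sub-toxic cotreatment; 0% = median of DMSO wells and 100% = median of geldanamycin control wells; wells of about 8 µL received 7.5 nL stock; the first replicate is given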
# LANA-H2A inh: blocks KSHV LANA binding to histone H2A/H2B; AID 2629; 0.6% of 320,000 active; inhibition, % (test concentration not listed); cell-free LANA-H2A/H2B peptide, fluorescence polarization; in the data active = inhibition mostly above about 10%, no sharp cut-off; inactive = mostly below about 6.7%;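 also: stock transfer was 7.5 nL into about 10 µL; 0% = median of vehicle wells and 100% = median of positive control wells; one replicate is shown; the record names a cut of 25% in any replicate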
# Beta apoptosis: beta cell apoptosis inhibition. AID 435005. 0.8% of 300,000 active. protection from apoptosis, % (concentration not given with the values). INS-1E cytokine-induced death, ATP luminescence, 48 h; percent of positive-control rescue, neutral wells zero;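 active = all replicates at 75% or more, or half of them and the mean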;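 also: 0% = cytokine-treated negative control wells and 100% = positive control rescue; higher means more ATP so stronger rescue from cytokine killing; wells of about 40 µL received 100 nL stock; the first replicate is given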
# Ecoli rRNA inh OD600: also measured in Ecoli rRNA inh; calls as there; OD600 change, %; measured here: OD600 growth;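 optical density of the mix in the first replicate; 0 = DMSO median and -100 = no signal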
# Ecoli rRNA inh RFP: second read-out of Ecoli rRNA inh, no call of its own (marks repeat the call); RFP signal change, %; measured here: RFP humanized mutant strains;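 first replicate; 0 = DMSO median and -100 = no signal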
# * = called active by the depositor; nt = no result given. Not all compounds are listed. The share of hits here may be higher or lower than overall.
SMILES,ALR H2O2 inh,Bfl-1 A1 inh,Ecoli rRNA inh,Ecoli rRNA inh OD600,Ecoli rRNA inh RFP,T cruzi inh,Beta2AR agonist,Calb FLC,LANA-H2A inh,Beta apoptosis
Cc1cc(Nc2nc3ccccc3nc2Cl)n(-c2ccc([N+](=O)[O-])cc2)n1,19,-0.3,-1,-4,-0.9,55*,3,-1,-8.5,77*
CC(=O)Nc1ccc(N2C(=O)CC(Sc3nc(C)cc(C)n3)C2=O)cc1 (stereo not drawn),-3,0.8,14,1,3.6,-10,-8,-3,3.2,-6
N#CC1=C(N)Oc2n[nH]c(-c3ccncc3)c2C1c1ccsc1 (stereo not drawn),6,-0.1,nt,nt,nt,-15,-17,18,3.4,-7
CCCCOP(=O)(c1ccc(N(C)C)cc1)C(O)c1ccncc1 (stereo not drawn),0,-0.5,nt,nt,nt,0,3,3,-2.7,-1
Cc1ccc(CSc2nnc(CCNC(=O)OC(C)(C)C)o2)cc1,26,0.1,-25*,-3.7*,3.7*,0,10,-11,4.1,4
Nc1ccc2c(c1Cl)C(=O)c1ccc(N)c(Cl)c1C2=O,nt,nt,-16,-30,0.1,14,7,2,nt,nt
COCCN(Cc1cc2cc(C)ccc2[nH]c1=O)S(=O)(=O)c1ccc(Cl)cc1,2,-0.1,-9,-5,-2.0,10,-9,10,-0.5,-2
CCOC(=O)N1CCN(c2ncc(C(F)(F)F)cc2Cl)CC1,-3,-0.1,5,-1,-2.8,18,-10,0,-4.1,-3
N=c1n(CCN2CCCCC2)c2ccccc2n1CC(=O)c1cccs1,-1,0.9,8,6,0.1,19,29,-6,-4.6,10
COc1ccc(CNC(=O)C(c2ccc(C)o2)N(C(=O)c2snc(C(N)=O)c2N)c2ccccc2OC)cc1 (stereo not drawn),-2,0.3,-1,-8,2.1,20,5,-2,0.0,-10
COc1ccc(C2OCC3(CO2)SC(=O)NC3=O)cc1OC (stereo not drawn),0,0.9,5,0,-2.9,-2,2,-1,2.0,-5
COc1ccc(NC(=O)NCc2cccnc2)c(OC)c1,0,1.6,-5,0,-0.8,4,-2,-10,0.8,-5
CCC(C)NC(=O)CN(c1ccc(OC)cc1)S(=O)(=O)c1ccc(NC(C)=O)cc1 (stereo not drawn),nt,-0.4,nt,nt,nt,-6,1,15,-4.4,nt
COc1cc(OC)cc(-c2c(C#Cc3ccsc3)c3cc(-c4cc(OC)c(OC)c(OC)c4)ccc3n2C)c1,-6,-1.1,6,15,1.7,nt,10,nt,2.9,-3
Cc1ccc(S(=O)(=O)N2CCN(C(=O)COC(=O)c3c(C)cc(C)cc3C)CC2)c(C)c1,-13,0.6,1,5,-1.6,34,2,5,3.9,10
O=C(N/N=C/c1cc(Br)c(O)c([N+](=O)[O-])c1)C(O)(c1ccccc1)c1ccccc1,14,0.2,-14,-18,-3.2,-8,5,-8,-2.1,-6
Cn1c(CNC(=O)c2ccco2)nnc1SCC(=O)Nc1ccc(Br)cc1F,nt,-0.1,nt,nt,nt,-4,-3,2,nt,-3
CCc1nnc(NC(=O)c2cccc(OC)c2)s1,-2,-2.6,nt,nt,nt,-6,5,-16,-7.3,0
Cc1cc(/C=C(\C#N)c2nc3ccccc3[nH]2)c(C)n1C,-15,-3.2,nt,nt,nt,0,-2,-2,-3.2,2
CC1(C)CC(=O)C2=C(C1)N(Cc1ccco1)C(=O)C2(NC(=O)c1ccc(Cl)cc1Cl)C(F)(F)F (stereo not drawn),98*,-0.2,nt,nt,nt,9,9,-21,-0.3,-8
CCOc1ccc(CCNC(=O)c2sc3nc4n(c(=O)c3c2C)CCC4)cc1OCC,-14,-0.5,-8,-13,1.3,8,-2,-4,3.1,-3
Cc1ccc(NC2=NCCCCC2)cc1,-11,-0.2,nt,nt,nt,-9,-5,-8,-8.3,-8
CCCCOc1ccc(C2(C)NC(=O)NC2=O)cc1 (stereo not drawn),1,0.5,-5,-6,-3.5,-5,-1,-7,2.6,-5
COc1ccc(/C=N/NC(=O)OC(C)(C)C)cc1OC,95*,-0.3,nt,nt,nt,13,-4,-10,-1.2,0
Cc1ccc(CNC(=O)C2CC(c3cccc([N+](=O)[O-])c3)=NO2)cc1 (stereo not drawn),-8,-0.2,5,10,-1.1,-10,-3,-3,-3.1,-8
COc1ccccc1C(=O)n1nc(-c2ccco2)nc1SC,98*,0.6,6,5,1.3,-15,4,-2,0.1,-5
O=C(NCc1ccccc1)c1c[nH]c2ccc(F)cc2c1=O,-8,-0.3,-25,-9,0.0,5,-5,-2,-3.5,-1
O=C(OCC(=O)N1CCOCC1)c1ccc2ccccc2c1O,nt,-0.7,-5,-18,-0.3,nt,2,nt,6.3,1
Cc1cc(C)nc(/N=c2/ssnc2Cl)c1,nt,0.3,nt,nt,nt,4,1,-1,6.6,-21
CCOC(=O)CCNc1n[nH]c(=O)[nH]c1=O,-1,0.2,18,7,2.6,-13,5,-4,-7.4,0
COc1ccc(OC)c(NC(=O)c2cc(S(=O)(=O)N3CCCCC3)c[nH]2)c1,-4,-0.6,nt,nt,nt,-13,0,-1,-1.6,-1
Cn1c(=O)n(C)c2cc(/C=C3/SC(=O)N(CC(=O)N4CCOCC4)C3=O)ccc21,-13,-0.4,nt,nt,nt,-3,-2,2,-3.3,-9
O=c1c(Cl)c(N/N=C/c2ccc(Br)cc2)cnn1-c1ccccc1,3,0.2,nt,nt,nt,7,-7,-5,-0.6,-2
CCc1cc(C(=O)OCC(=O)N2CCC(c3ccccc3)=N2)sc1C,65,3.4,-32,-26,-0.4,5,-4,-1,-1.1,-3
C=CCSc1nnc(NC(=O)c2ccc(Cl)nc2)s1,-18,-1.9,nt,nt,nt,7,4,30,1.3,8
CN(C)CCNC(=O)c1cc(Sc2ccc(F)cc2)nc2ccccc12,nt,0.4,nt,nt,nt,65*,nt,-27,1.1,1
CCCCCN1C(=O)Cn2c(nc3ccccc3c2=O)C1C (stereo not drawn),-2,0.4,5,4,-1.2,-14,-5,13,3.5,3
O=C(c1cc(=O)c2ccccc2o1)N1CCN(c2cccc(Cl)c2)CC1,-4,0.1,-30*,-23*,4.3*,10,2,2,1.5,-4
CC(=O)NC1(C(F)(F)F)C(=O)N(Cc2ccccc2)C2=C1C(=O)CC(C)(C)C2 (stereo not drawn),0,0.6,nt,nt,nt,-8,-4,8,2.7,-3
CCOC(=O)c1ccc(NC(=O)Nn2cnnc2)cc1,-7,0.3,6,11,0.3,-11,2,-18,-9.5,-14

# Part of the list above in another layout:
O=c1c(Cl)c(N/N=C/c2ccc(Br)cc2)cnn1-c1ccccc1
  ALR H2O2 inh: 3
  Bfl-1 A1 inh: 0.2
  Ecoli rRNA inh: nt
  Ecoli rRNA inh OD600: nt
  Ecoli rRNA inh RFP: nt
  T cruzi inh: 7
  Beta2AR agonist: -7
  Calb FLC: -5
  LANA-H2A inh: -0.6
  Beta apoptosis: -2
CCCCCN1C(=O)Cn2c(nc3ccccc3c2=O)C1C (stereo not drawn)
  ALR H2O2 inh: -2
  Bfl-1 A1 inh: 0.4
  Ecoli rRNA inh: 5
  Ecoli rRNA inh OD600: 4
  Ecoli rRNA inh RFP: -1.2
  T cruzi inh: -14
  Beta2AR agonist: -5
  Calb FLC: 13
  LANA-H2A inh: 3.5
  Beta apoptosis: 3
CCOC(=O)c1ccc(NC(=O)Nn2cnnc2)cc1
  ALR H2O2 inh: -7
  Bfl-1 A1 inh: 0.3
  Ecoli rRNA inh: 6
  Ecoli rRNA inh OD600: 11
  Ecoli rRNA inh RFP: 0.3
  T cruzi inh: -11
  Beta2AR agonist: 2
  Calb FLC: -18
  LANA-H2A inh: -9.5
  Beta apoptosis: -14
O=C(c1cc(=O)c2ccccc2o1)N1CCN(c2cccc(Cl)c2)CC1
  ALR H2O2 inh: -4
  Bfl-1 A1 inh: 0.1
  Ecoli rRNA inh: -30*
  Ecoli rRNA inh OD600: -23*
  Ecoli rRNA inh RFP: 4.3*
  T cruzi inh: 10
  Beta2AR agonist: 2
  Calb FLC: 2
  LANA-H2A inh: 1.5
  Beta apoptosis: -4

# Further structures:
SMILES,ALR H2O2 inh,Bfl-1 A1 inh,Ecoli rRNA inh,Ecoli rRNA inh OD600,Ecoli rRNA inh RFP,T cruzi inh,Beta2AR agonist,Calb FLC,LANA-H2A inh,Beta apoptosis
CC(C)Cc1nc2sc3c(=O)[nH]cnc3c2c2c1CCCC2,nt,0.6,9,9,-0.8,24,1,36,-0.1,6
CCC1CCCCN1S(=O)(=O)c1ccc(NC(=O)c2cccs2)cc1 (stereo not drawn),-3,-0.3,nt,nt,nt,42,-9,-2,-5.4,11
CCC(=O)Nc1cc(-c2nc3ncccc3o2)ccc1Cl,0,0.7,6,8,-1.0,-1,-15,1,-5.9,1
COc1ccc(CCNC(=O)NCCc2c[nH]c3ccccc23)cc1OC,0,1.9,-1,4,0.0,-15,2,5,7.7,0
COc1ccccc1CC(=O)O/N=C(\N)c1cccc([N+](=O)[O-])c1,8,-1.4,nt,nt,nt,5,-7,-1,-0.4,5
CCCc1nc2sc(C(=O)OCC)c(N)c2c2c1COC(C)(C)C2,0,-1.1,nt,nt,nt,19,-4,-2,-3.1,-6
Cc1cc(C)cc(NC(=O)COC(=O)c2cccc(S(=O)(=O)N3CCCCC3)c2)c1,-6,-0.1,3,8,0.1,nt,-6,nt,-4.0,-7
COc1ccc(Cl)cc1NC(=S)N1CCCCCC1,-26,-0.2,8,4,-0.2,-1,6,5,-0.5,-5
CC(C)CN1C(Nc2ccccc2)=NC[C@@H]1C,5,-0.3,6,-5,8.7,-10,-1,-1,-2.1,-2
CCOc1cc(/C=C2/SC(=S)N(C)C2=O)ccc1Oc1ccc([N+](=O)[O-])cc1[N+](=O)[O-],-1,0.1,nt,nt,nt,0,nt,-4,-2.9,7
COc1ccc(N(CC(=O)NCCSCc2ccccc2Cl)S(C)(=O)=O)cc1Cl,-2,0.2,6,-2,0.7,-3,-7,8,1.2,-1
CC(=O)Nc1ccc(NC(=O)c2cc(C)nn2-c2ccccc2)cc1,-3,3.0,nt,nt,nt,-13,-4,7,-0.7,-4
COCC(=O)Nc1cc(C(=O)Nc2ccccc2)ccc1Cl,-3,-4.1,0,5,-0.7,-7,nt,25,4.0,4
CCc1noc(C)c1C(=O)OCC(=O)NCc1ccccc1OC,-1,-0.4,4,11,-2.2,nt,0,nt,1.5,0
Cc1ccc(C(=O)Nc2ccon2)cc1S(=O)(=O)N1CCCCCC1,-5,0.2,nt,nt,nt,-1,-29,2,-2.4,-1
COc1ccc(NC(=O)CCNS(=O)(=O)c2cc(Br)ccc2Br)cc1S(N)(=O)=O,nt,0.3,5,-1,-1.9,-4,-6,-4,4.3,-10
Cc1ccc(SCC(=O)OCC(=O)N(C)CC(=O)Nc2ccc(F)cc2)cc1C,-5,1.2,-5,-2,1.6,3,-3,-7,4.1,-4
COc1ccccc1OCCn1cc(C(=O)O)c2ccccc21,3,0.6,-3,-8,-1.4,4,14,-1,-1.3,0
CCC(=O)N1CCC(c2ccc(OC)cc2)=N1,-4,-1.5,-2,-3,-2.1,-9,-2,8,0.5,-11
COc1cc2c(cc1NC(=O)c1ccc(C(C)(C)C)cc1)CCCC2,-1,-0.1,nt,nt,nt,33,5,0,0.0,3
